CBX7 inh: blocks human CBX7 binding to H3K27me3 peptide | O95931 | AlphaScreen His6-CBX7 / biotin-H3K27me3 peptide binding; hits give low values | normalised signal (fraction of DMSO) (concentration not given with the values) | 66,000 compounds, 1.1% hits; in the data active = normalised signal below about 0.5;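 also: 100 nL library stock added to about 20 µL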
Target sequence (O95931 whole entry, looked up): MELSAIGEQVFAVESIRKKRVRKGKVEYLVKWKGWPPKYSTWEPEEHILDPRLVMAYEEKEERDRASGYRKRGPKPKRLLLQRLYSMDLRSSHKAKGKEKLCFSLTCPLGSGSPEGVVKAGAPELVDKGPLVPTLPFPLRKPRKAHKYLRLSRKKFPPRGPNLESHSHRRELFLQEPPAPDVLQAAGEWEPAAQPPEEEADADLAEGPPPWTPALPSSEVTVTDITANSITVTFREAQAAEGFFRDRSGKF
CBX7 inh z-score: second read-out of CBX7 inh, no call of its own (marks repeat the call); z-score; measured here: z-score of CBX7 signal; some inactives read as strong as hits; reference of the scale not given here;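 same signal on another scale; lower means less binding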
* hit, by the source's call.

Results follow in this order: CBX7 inh	CBX7 inh z-score
- Cc1c(Cl)cccc1N1C(=O)c2ccc(Oc3ccc(Nc4ncnc5ccccc45)cc3)cc2C1=O
  0.936	-1.71
- Cc1cc(Cl)ccc1OCc1nc(-c2nonc2N)no1
  1.02	0.471
- CCN(CC)C(=O)c1cc2c(-c3cccc(OC)c3)nn(C)c2s1
  1.07	1.86
- COc1ccc(OCC(=O)Nc2nc(-c3ccc(Cl)cc3)cs2)cc1
  1.14	2
- Cc1ccc(NC(=O)COc2ccc3oc4c(c3c2)CCCC4)nc1
  1.13	1.45
- COCCCNC(=O)c1ccc2c(c1)N(Cc1cc(C)ccc1C)C(=O)CS2
  0.923	-1.02
- CCOC(=O)c1cnc2ccc(Cl)cc2c1Nc1cccc(C(=O)O)c1
  1.06	1.78
- COc1ccccc1NC(=O)C1C2C=CC3(CN(Cc4cccnc4)C(=O)C13)O2 (centres undefined)
  1.01	0.00899
- CC(C)CCNC(=O)c1cc(=O)[nH]c2ccc(S(=O)(=O)N3CCOCC3)cc12
  0.972	-0.311
- CN(CC(=O)NC(c1ccccc1)c1ccccc1)S(=O)(=O)c1ccc2c(c1)CCC(=O)N2
  1.01	0.346
- Cc1cc(Nc2cccc(C(F)(F)F)c2)n2nnnc2n1
  0.998	-0.0264
- c1cn2c(Nc3ccc4c(c3)OCCO4)c(-c3ccsc3)nc2cn1
  1.39	3.72
- CCOc1ccc(NC(=O)CN(C)S(=O)(=O)c2cccc3cccnc23)cc1
  1.01	0.167
- CCn1cc(C(=O)N2CCOCC2)c2cc(OC)c(OC)cc2c1=O
  1.02	0.265
- O=C(Cn1nc(Cc2ccncc2)c2ccccc2c1=O)N1CCN(c2ccccc2)CC1
  0.941	-1.62
- O=C(Nc1cnc2ccccc2c1)c1cc2c(s1)-c1ccccc1OC2
  1.16	4.68
- O=C1C2C(C(=O)N1c1ccccc1Br)C1C=CC2C12CC2 (centres undefined)
  0.895	-1.35
- COc1ccc(CNC(=O)C(=O)NCCCN2CCOCC2)cc1
  1.02	0.026
- CCOc1ccccc1NC(=O)c1c(NCc2cccc(F)c2)sc2c1CCC2
  1.03	1.51
- CC(C)NCCn1c(-c2ccc(Br)cc2)cn2c3ccccc3nc12
  0.86	-2.75
- Cc1ccccc1N1C(=O)c2ccccc2C1Nc1ccc(F)c(Cl)c1 (centres undefined)
  0.987	-0.435
- COc1ccccc1OCCn1c(C(F)(F)F)nc2ccccc21
  1.29	2.1
- CC1CCCC(NC(=O)C2(C)CCC(=O)N2CCN2CCCCCC2)C1C (centres undefined)
  1.2	2.27
- O=C(NCCCN1CCN(c2ccc(F)cc2)CC1)Nc1ccccc1
  1.08	0.635
- COCCNC(=O)c1cc(Nc2ccccc2)nc2ccccc12
  1.03	0.306
- Clc1ccc(-c2cn3nc(-c4ccccc4)c(-c4ccccc4)nc3n2)cc1
  2.4	2.84
- COCCNC(=O)c1ccc2c(c1)nc(C)n2-c1cc(C)ccc1OC
  1.07	3.29
- COc1ccccc1OC(C)C(=O)Nc1c(C(=O)c2ccc(C)cc2)oc2ccccc12 (centres undefined)
  1.31	4.21
- O=C(Cn1c(SCc2cccc(F)c2)nc2ccncc21)Nc1ccccc1C(F)(F)F
  0.959	-1.05
- Cc1c(C(=O)N(Cc2ccccc2)C(C)C)oc2ccc(S(=O)(=O)N3CCCC3)cc12
  1.12	2.84

Sorted by formula weight (low to high): some entries from above.
Results follow in this order: CBX7 inh	CBX7 inh z-score
- COc1ccccc1OCCn1c(C(F)(F)F)nc2ccccc21
  1.29	2.1
- CCN(CC)C(=O)c1cc2c(-c3cccc(OC)c3)nn(C)c2s1
  1.07	1.86
- COc1ccccc1NC(=O)C1C2C=CC3(CN(Cc4cccnc4)C(=O)C13)O2 (centres undefined)
  1.01	0.00899
- CC(C)NCCn1c(-c2ccc(Br)cc2)cn2c3ccccc3nc12
  0.86	-2.75
- CC(C)CCNC(=O)c1cc(=O)[nH]c2ccc(S(=O)(=O)N3CCOCC3)cc12
  0.972	-0.311
- Cc1c(C(=O)N(Cc2ccccc2)C(C)C)oc2ccc(S(=O)(=O)N3CCCC3)cc12
  1.12	2.84
- CN(CC(=O)NC(c1ccccc1)c1ccccc1)S(=O)(=O)c1ccc2c(c1)CCC(=O)N2
  1.01	0.346

New compounds follow:
Results follow in this order: CBX7 inh	CBX7 inh z-score
- CCCOc1ccc(-c2nc(Oc3ccc(C(=O)OC)cc3)c3ccccc3n2)cc1
  1.09	2.27
- COc1ccc(CNC(=O)c2nn3c(C(F)(F)F)cc(-c4ccc(Br)o4)nc3c2Br)cc1
  0.874	-2
- CCCCOc1ccc(-c2cc(C(N)=O)c3ccccc3n2)cc1
  0.979	-0.458
- O=C(O)c1ccc(Nc2nc(-c3ccccn3)cs2)cc1
  0.181*	-16.2*
- O=C(Nc1c(-c2ccccc2)nc2ccccn12)c1ccc(Br)cc1
  0.976	-0.575
- COc1ccc(NC(=O)c2sc3nc(C)nc(N4CCCCC4C)c3c2C)c(OC)c1 (centres undefined)
  0.984	-0.487
- COc1ccc(-c2cc(C(F)(F)F)nc(NCc3ccc(F)cc3)n2)cc1
  1.34	13.6
- CCCc1cc(=O)n2[nH]c(C)c(-c3ccc(Cl)cc3)c2n1
  0.991	-0.151
- COC(=O)C(C)C1Sc2ccccc2N(Cc2cc(C)ccc2C)C1=O (centres undefined)
  1.05	0.928
- CCc1ccc2nc(N3CCC(C(=O)NCCCN4CCCCCC4)CC3)sc2c1
  2.53	16.9
- CCOC(=O)N1CCC(N2Cc3cccc(C(=O)Nc4ccccc4CC)c3C2=O)CC1
  1.01	0.493
- Cc1noc(C(=O)NCc2ccccc2)c1Cl
  1.06	1.99
- CC(C)NC(=O)c1cc(-c2ccc3c(c2)OCO3)on1
  1.19	1.51
- CCOC(=O)Cc1csc(NC(=O)COc2ccccc2)n1
  1.19	1.95
- C=CCN(C(=O)c1cc2c(s1)-c1ccccc1OC2)c1ccccc1
  1.26	7.18
- O=C(CN1CCN(Cc2ccccc2F)C1=O)NCCN1CCOCC1
  0.977	-0.336
- O=C(C(Cc1ccccc1)NS(=O)(=O)c1cccs1)N1CCN(c2ccccc2F)CC1 (centres undefined)
  1.05	0.762
- CCOc1ccc(NC2c3ccccc3C(=O)N2c2cccnc2)cc1 (centres undefined)
  0.898	-1.71
- O=C1CSC(=NC(=O)C2CCN(C(=O)c3cnn(-c4ccccc4)c3-n3cccc3)CC2)N1
  0.838	-1.23
- COc1ccc(-c2cc(C(F)(F)F)n3ncc(C(=O)NCc4ccccc4)c3n2)cc1OC
  1.11	3.64
- CCOC(=O)c1cnc2c(C)c(Cl)ccc2c1NCCc1ccc(OC)c(OC)c1
  1.27	5.95
- CCc1nnc2sc(-c3ccccc3)nn12
  0.989	-0.415
- COc1ccc(CCNC(=O)Cn2cnc3c(nnn3Cc3ccc(C)cc3)c2=O)cc1OC
  0.951	-0.812
- O=C(O)c1ccc(CSc2nnc(-c3ccccc3)n2Cc2ccccc2)cc1
  1.05	0.342
- Cc1nn(CC(=O)Nc2ccc(S(N)(=O)=O)cc2)c(=O)c2ccccc12
  1.01	0.297
- CC1CCCCN1S(=O)(=O)c1ccc2[nH]c(=O)cc(C(=O)NCCCN3CCCC3)c2c1 (centres undefined)
  1	0.136
- O=C(NCc1ccc(Cl)cc1)c1cc(-c2ccc3c(c2)OCO3)on1
  1.09	2.59
- CCOC(=O)N1CCc2c(sc(NCc3cccc(OC)c3)c2C(=O)Nc2ccccc2OCC)C1
  0.973	-1.4
- CCC1Oc2ccc(C)cc2N(CC(=O)NCCCN2CCCC2=O)C1=O (centres undefined)
  1.02	0.305
- CCOc1ccc(-c2nc(C#N)c(N3CCCCCC3)o2)cc1
  0.56	-4.83

Reprinted from the part before: two entries; new compounds follow.
Results follow in this order: CBX7 inh	CBX7 inh z-score
- CCC1Oc2ccc(C)cc2N(CC(=O)NCCCN2CCCC2=O)C1=O (centres undefined)
  1.02	0.305
- CCOc1ccc(-c2nc(C#N)c(N3CCCCCC3)o2)cc1
  0.56	-4.83
- COc1ccc(C(=O)NC(C)C(c2cccs2)N2CCN(c3ccc(F)cc3)CC2)cc1OC (centres undefined)
  1	0.0635
- COc1ccc(N2C(=O)CCC(C(=O)NCCN(C)C)C2c2ccc(F)cc2)cc1 (centres undefined)
  1.25	3.85
- CCOC(=O)N1CCC(Nc2c(Nc3ccc(CC)cc3)c(=O)c2=O)CC1
  0.918	-0.974
- CN(CC(=O)Nc1ccccc1Cl)S(=O)(=O)c1ccc2c(c1)n(C)c(=O)c(=O)n2C
  1.03	1.12
- O=C(c1cc2c(s1)-c1ccccc1OC2)N1CC=C(c2ccccc2)CC1
  1.18	4.35
- Cc1onc(-c2ccccc2)c1C(=O)Nc1sc2c(c1C#N)CCCCC2
  0.972	-0.671
- COc1ccc(C)cc1NC(=O)c1cc(-c2ccccc2)nc2ccccc12
  0.856	-1.23
- CCOC(=O)C1CCCN(c2c(N3CCCCC3)c(=O)c2=O)C1 (centres undefined)
  1.04	0.377
- CCCCN(C)S(=O)(=O)c1ccc(C(=O)Nc2ccc3sc(C)nc3c2)cc1
  1.06	1.49
- CCC(=O)Nc1c(-c2ccccc2)nc2ccc(C)cn12
  0.844	-1.96
- COc1cc(NC(=O)c2ccc(Cl)cc2)c2ncccc2c1
  1.06	2.36
- Cc1cc(NS(=O)(=O)c2ccc3c(c2)CCN3C(=O)C2CCC2)ccc1Br
  1.06	0.255
- Cc1cccc(N(C)C(=O)Cn2ncc3c2-c2ccccc2OC3)c1
  0.912	-2.52
- Cc1ccc(-c2nc(CS(=O)(=O)CC(=O)N3CCOCC3)c(C)o2)cc1
  1.06	0.119
- CCOC(=O)CN1C(=O)CSc2ccc(S(=O)(=O)N3CCC(C)CC3)cc21
  1.01	0.0784
- Cc1ccc2oc(-c3cc(NC(=O)Cc4ccccc4)ccc3Cl)nc2c1
  1.05	1.36
- CC(=O)NCC(=O)NC(C(=O)Nc1ccc2c(c1)OCO2)c1ccccc1 (centres undefined)
  1.12	0.757
- COc1ccc(Nc2cc(C(=O)NCc3ccccn3)c3ccccc3n2)c(OC)c1
  0.895	-0.105
- Clc1ccc(Nc2c(-c3ccc(N4CCOCC4)cc3)nc3cnccn23)cc1
  1.04	1.65
- O=C(Nc1cccc(C(F)(F)F)c1)c1cc(-c2ccccc2)n[nH]1
  0.863	-1.77
- O=C(CC1Oc2ccccc2NC1=O)NCc1ccc(F)cc1 (centres undefined)
  0.989	-0.52
- O=C1CSC(c2ccccc2)N1c1cccc(Cl)c1 (centres undefined)
  1.12	1.33
- Cc1ccccc1NC(=O)Nc1ccc2snnc2c1
  1.06	2.46
- CCOC(=O)N1CCN(C(=O)C2CCN(Cc3nc(-c4ccc(CC)cc4)oc3C)CC2)CC1
  0.876	-1.89
- COc1ccc(NC(=O)C2CCCN(S(=O)(=O)c3cccnc3)C2)cc1OC (centres undefined)
  0.971	-0.968
- Cc1ccc(C)c(CN2C(=O)c3ccccc3Sc3ccc(C(=O)NCc4ccc(F)cc4)cc32)c1
  1.04	1.5
- CCOC(=O)c1cc(-c2ccccc2)n(CCC(=O)Nc2cccc(C)c2)c1C
  0.925	-1.35
- COc1cccc(NC(=O)COc2ccc3oc4c(c3c2)CCCC4)c1
  0.871	-1.28
- COCCCNC(=O)CNC(=O)c1cn(-c2ccccc2OC)c(=O)c2ccccc12
  1.08	1.22
- CC(C)(C)c1ccc2c(c1)N(CC(=O)NCCc1ccc(Cl)cc1)C(=O)CO2
  0.586	-7.15
- CCN(CC)S(=O)(=O)c1ccc(C(=O)Nc2c3c(nn2-c2ccccc2C)CSC3)cc1
  1.02	0.559
- O=C(NC1CCCCC1)c1c[nH]c2ccc(S(=O)(=O)Nc3ccc4c(c3)OCCO4)cc2c1=O
  0.985	-0.196
- O=C(C1CCCN(c2nnc(-n3cccc3)s2)C1)N1CCOCC1 (centres undefined)
  0.956	-0.964
- Cc1nc(C)c(-c2csc(Nc3cccc(O)c3)n2)s1
  0.538	-9.17
- CCOc1ccc(C(=O)Nc2ccc3nn(-c4cccc(Cl)c4)nc3c2)cc1
  1.05	1.89
- COC(CNC(=O)CN1C(=O)COc2ccc(S(=O)(=O)N3CCOCC3)cc21)OC
  0.948	-1.23
- CCOC(=O)N1CCN(C(=O)Cn2nc(Cc3ccncc3)c3ccccc3c2=O)CC1
  1.01	0.194
- CCOc1ccc(NC(=O)CCc2nc3cccnc3n2Cc2ccc(OC)cc2)cc1
  1.01	0.241
- O=C(CN1C(=O)CSc2ncccc21)Nc1cccc(F)c1
  1.01	0.0225
- CCOc1ccc2c(c1)c(=O)c(C(=O)c1ccc3c(c1)OCO3)cn2Cc1ccc(Cl)cc1
  0.749	-0.886
- Cc1cccc(NCc2nc3ccccc3n2CCOc2ccccc2)c1
  0.965	-1.28
- COc1ccc(NC(=O)Cn2cnc3c(nnn3Cc3ccc(F)cc3)c2=O)cc1
  1.06	0.935
- O=C(NCc1ccccc1Cl)C1CCN(Cc2cnn(-c3ccccc3)c2-n2cccc2)CC1
  0.936	-2.88
- COc1ccc(Nc2cc(C(=O)NCC(OC)OC)c3ccccc3n2)c(OC)c1
  0.754	-3.76
- Cc1ccc(CN2CC34C=CC(O3)C(C(=O)NCc3ccccc3Cl)C4C2=O)cc1 (centres undefined)
  0.996	-0.212
- COc1ccc(C2=NN(CCC(=O)NC3CCCCCC3)C(=O)CC2)cc1
  1.01	0.148
- CCN(c1cccc(C)c1)C(C(=O)NC1CCCCC1)c1ccc(Cl)cc1 (centres undefined)
  0.924	-1.89
- Cc1cc(=O)n2nc(N3CCCC(C(=O)N4CCCCC4)C3)sc2n1 (centres undefined)
  1.09	0.832
- COc1ccc(-c2c(C(F)(F)F)oc3c(CN4CC(C)OC(C)C4)c(O)ccc3c2=O)cc1OC (centres undefined)
  1.27	1.77
- NC(=O)CSc1nnc(-c2cccnc2)n1-c1ccccc1
  1.01	0.327
- Cc1ccn2c(NC3CCCCC3)c(-c3ccccn3)nc2c1
  0.46*	-14.4*

Screening results: PubChem, several laboratories

Some of the compounds tested; rates above refer to the full screens.
